Screens: PubChem, ICCB-Longwood Screening Facility, Harvard Medical School
AID504770 = E. coli YBA685 growth inhibition, screen for V. cholerae RctB inhibitors | E. coli YBA685 rctB-dependent plasmid, OD600 growth, 3 h; active compounds read low | z-score (no concentration beside the values) | 0.27% of 130,000 active;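 active = z-score under -2 on both plates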;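 note: wells of about 30 µL received 100 nL stock; score is relative to mean and SD of the test wells; the first replicate is given; strong numbers were not always called active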
Ba CapD inh = inhibitors of Bacillus anthracis CapD enzyme; purified CapD enzyme, fluorescence intensity read-out; active compounds read low; some hits fall short of the stated cut; z-score (concentration not given with the values); 0.23% of 140,000 active;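 active = z-score under -4 in either of two replicates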;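 note: stock transfer was 100 nL into about 40 µL; score is relative to mean and spread of the plate; one replicate is shown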
* marks the source's active call; other numbers are inactive results; · = not tested or not shown. These rows are one share of the data; the hit share may differ from the screen's.

SMILES | AID504770 | Ba CapD inh
CCOC(=O)c1oc2ccccc2c1COC(=O)C1COc2ccccc2O1 (centres undefined) | -0.1 | ·
COc1ccc2ccccc2c1/C=C1\SC(=Nc2ccccc2)N(N(C)C)C1=O | · | 0.03
COc1ccc(NC(=O)COc2ccc(C)c(C)c2)cn1 | -0.35 | ·
CCCSc1nc(C)cc(C)c1C(N)=O | -0.25 | -0.78
O=C(COc1ccccc1)NCCN1CCCC1 | -0.05 | 0.44
CCc1ccc(C(=O)Nc2ccc(N(CC)CC)cc2C)cc1 | 0.5 | 0.45
CCCn1nnc(NC(=S)NC(=O)c2cccs2)n1 | -0.45 | -0.08
CC(=O)Nc1ccc(NC(=O)C(C)OC(=O)c2n[nH]c(=O)c3ccccc23)cc1 (centres undefined) | 0.45 | ·
CCC(C)(C)c1ccc(S(=O)(=O)NC(Cc2ccccc2)C(=O)NC2CCCCC2)cc1 (centres undefined) | · | -1.2
C=CCn1c(CNC(=O)c2ccco2)nnc1SCc1nc2ccccc2c(=O)[nH]1 | -0.7 | -0.065
CCn1cnc2sc(C(=O)N(Cc3ccc(N(C)C)cc3)Cc3ccco3)c(C)c2c1=O | 2.5 | -0.77
O=C(COc1ccc(-c2nnco2)cc1)c1ccc[nH]1 | -0.65 | ·
Cc1onc(N=CN(C)C)c1C | · | -0.05
COc1ccc(N2CCN(c3nc(Nc4ccc(F)cc4)nc(N4CCOCC4)n3)CC2)cc1 | · | -0.05
COc1ccc(OC)c(C2C(N3C(=O)c4c(Cl)c(Cl)c(Cl)c(Cl)c4C3=O)C(=O)N2c2ccc(F)cc2)c1 (centres undefined) | · | -0.46
Cc1nn(-c2ccccc2)c2c1C(C(F)(F)F)(C(F)(F)F)N=C(N1CCOCC1)O2 | 0.55 | 0.87
CC1=C(C(=O)NC(C)c2ccc3c(c2)OCCO3)C2(CCC(C)CC2)OC1=O (centres undefined) | 2.1 | -2.2
CC(C)Cn1c(SCC(=O)Nc2ccccc2)nc2ccccc21 | -0.6 | ·
CSc1nnc(-c2ccc(SC#N)cc2)o1 | · | -0.72
CCSc1nc2ccccc2n1C(=O)CCC(=O)O | -0.65 | ·
O=C(COc1ccc(Cl)cc1)Nc1ccc(Cn2ccnc2)cc1 | -0.3 | 1.1
N#CCN(CC#N)C(=O)c1cccc(C(=O)N(CC#N)CC#N)c1 | -1.1 | 1.6
Cc1cccc(N(C)c2nc3ccccc3n3c(C)nnc23)c1 | -0.2 | -1
Cc1nc(C(F)(F)F)ccc1C(=O)NC1CCCCNC1=O (centres undefined) | 0.4 | -0.02
COC(=O)C1(O)C(C(C)=O)=C(O)C(=O)N1c1ccc(Br)cc1 (centres undefined) | · | 3.6

Next section, overlapping the part above by 5 compounds.
SMILES | AID504770 | Ba CapD inh
O=C(COc1ccc(Cl)cc1)Nc1ccc(Cn2ccnc2)cc1 | -0.3 | 1.1
N#CCN(CC#N)C(=O)c1cccc(C(=O)N(CC#N)CC#N)c1 | -1.1 | 1.6
Cc1cccc(N(C)c2nc3ccccc3n3c(C)nnc23)c1 | -0.2 | -1
Cc1nc(C(F)(F)F)ccc1C(=O)NC1CCCCNC1=O (centres undefined) | 0.4 | -0.02
COC(=O)C1(O)C(C(C)=O)=C(O)C(=O)N1c1ccc(Br)cc1 (centres undefined) | · | 3.6
O=C(Nc1sccc1C(=O)NC1CCCC1)c1ccc(Br)s1 | -0.35 | -0.82
O=C(CSc1nnnn1C1CC1)N1c2ccccc2SCC1c1ccccc1 (centres undefined) | -0.6 | ·
COC(=O)c1ccccc1Oc1cc(C(F)(F)F)nc(-c2ccccn2)n1 | · | -0.32
FC(F)(F)c1cnc(Nc2nc(-c3ccc(Cl)cc3)cs2)c(Cl)c1 | · | 0.11
Cc1cc(C)n2ncc(C(=O)Nc3ccc(C)c(C)c3)c2n1 | 0.45 | ·
CCCCn1c(N)c(N(C)C(=O)CSc2nnc(-c3ccc(F)cc3)o2)c(=O)[nH]c1=O | -0.75 | ·
O=C(c1cccc(Br)c1)c1nccn1-c1ccccn1 | -1 | -0.57
CN(C)C(=O)CCCc1nc(-c2ccc(Cl)cc2)no1 | -2.4* | -0.96
CCOC(=O)c1c(C)n(C)c2c1cc(OC(=O)c1ccc(OC)cc1)c1ccccc12 | · | 0.005
CCC(OC(=O)C1=Cc2ccccc2OC1)C(=O)NC1CCCC1 (centres undefined) | -0.2 | ·
OC(CNCc1ccco1)c1ccccc1 (centres undefined) | -0.55 | 0.94
Cc1ccc(-c2nn3c(C)nnc3c3ccccc23)cc1S(=O)(=O)N1CCCC1 | -0.75 | 2.5
CC1=CC(C)=NC2=C(c3ccccc3)S/C(=C3/C(=O)N(C)C(=S)N3C)N12 | 0.35 | ·
O=S(=O)(Nc1nc2ccccc2nc1N1CCCC1)c1ccccc1 | 1.4 | ·
COc1cc2c(cc1OC)C1C(C(=O)NCC3COc4ccccc4O3)c3ccccc3C(=O)N1CC2 (centres undefined) | -0.55 | 0.46
COc1ccc(CCNC(=O)CSc2nc3ccccc3c(=O)n2C2CCCC2)cc1OC | · | 0.16
COc1ccc(OC)c(CCNC(=O)CN2C(=O)CC(C)(C)S(=O)(=O)c3ccccc32)c1 | -0.3 | 0.45
O=C(c1ccc(Cl)cc1)n1cc2c(n1)-c1cc(Cl)ccc1SC2 | 1.8 | 0.97
COCCCn1cnc2oc3nc4ccccc4nc3c2c1=O | 0.2 | ·
CON/C=C(\C=Nc1ccccc1)c1ncc(C(F)(F)F)cc1Cl | · | -1.7
CCOC(=O)c1nn(-c2ccc(C(F)(F)F)cc2)cc(Sc2nnc(C(F)(F)F)n2C)c1=O | -0.25 | 9
Cc1cccc(C)c1N1CCN(S(=O)(=O)c2cc(F)c(Br)cc2F)CC1 | · | 0.4
CSc1nc(-c2ccccc2)c2cc(Cl)ccc2n1 | 0.5 | 0.38
Clc1ccc(C2C=C(c3ccccc3)Nc3nc4ccccc4n32)cc1 (centres undefined) | · | -0.45
Cc1cc2nc(C)n(CCCN)c2cc1C | 0.6 | -0.22
Additional results.
SMILES | AID504770 | Ba CapD inh
CC(C)Sc1nc2[nH]ncc2c(=O)[nH]1 | 0.2 | ·
Cc1nnc(SCC(=O)N(C)Cc2ccccc2)n1Cc1ccccc1 | -0.2 | ·
CC(C)CNC(=O)c1cc(-c2ccc(F)cc2)no1 | -1.2 | 64
COc1ccc(CCNC(=O)CSc2nc3ccccc3c(=O)n2CCCC(=O)NCc2ccco2)cc1OC | · | -0.21
O=c1[nH]c2ccc(Cl)cc2c(-c2ccccc2)c1Sc1nc2ccccc2o1 | · | 0.91
CCOC(=O)Cc1n[nH]c(=S)n1C1CCCC1 | 0.5 | ·
O=C(O)CCNc1nc2ccccc2s1 | -0.5 | 0.065
NS(=O)(=O)c1ccc(N2N=C(/C=C/c3ccccc3)CC2c2ccccc2)cc1 (centres undefined) | · | 88
CC1=C(C)CC(C(=O)c2ccccc2)C(C(=O)O)C1 (centres undefined) | -0.3 | -0.045
Cc1ccc(CNCc2ccncc2)cc1 | -0.45 | 0.075
Cc1ccc(C23CC4CC(CC(C(=O)N5CCCCC5)(C4)C2)C3)cc1 | · | -0.14
CCCCN1C(=O)C2(/C(=C(/O)c3ccc(C)c(F)c3)C(=O)C(=O)N2CCN(C)C)c2ccccc21 (centres undefined) | 0.05 | 0.83
N#CCC(=O)N=Cc1ccc(Cl)cc1Cl | -1.1 | 5.4
C/C=C/c1ccc(OCC(O)CN(C)C2CCCCC2)c(OC)c1 (centres undefined) | -0.2 | ·
COC(=O)c1ccc(C(=O)N=c2sc3cc(F)ccc3n2C)cc1 | -0.6 | -0.07
Cc1ccc(-c2nnc(SCC(=O)Nc3ccccc3)c3ccccc23)cc1S(=O)(=O)N1CCOCC1 | · | -0.62
FC(F)(F)c1cnc(-n2nc(Br)nc2Br)c(Cl)c1 | -0.65 | 0.8
CSc1nc(N(C)C)nc(N2CC(=O)N(CCNS(=O)(=O)c3ccc(C)cc3)C2=N)n1 | · | 0.65
COc1ccc(N)c2nc(C)c(C)nc12 | -0.85 | -0.48
O=c1c2ccccc2nc2n1-c1ccccc1CCC2 | 2.2 | 0.44
Cc1ccc(-c2n[nH]c3c2C(c2ccc([N+](=O)[O-])cc2)N(c2ccc(F)cc2)C3=O)cc1 (centres undefined) | · | -0.92
O=C(CN1C(=O)C2CC=CCC2C1=O)OCc1cc(=O)n2cc(Br)ccc2n1 (centres undefined) | 1.8 | ·
CN(C)S(=O)(=O)c1ccc(C(=O)Nc2cccc3c2C(=O)c2ccccc2C3=O)cc1 | · | -0.16
N#Cc1ccsc1NC(=O)CSCC(=O)O | 0.1 | 0.83
CCN(CC)c1ccc(/C=C2/N=C(c3cc(OC)c(OC)c(OC)c3)OC2=O)cc1 | · | 0.51

Structures shown so far that contain two or more sulfur atoms:
SMILES | AID504770 | Ba CapD inh
CCCn1nnc(NC(=S)NC(=O)c2cccs2)n1 | -0.45 | -0.08
CSc1nnc(-c2ccc(SC#N)cc2)o1 | · | -0.72
O=C(Nc1sccc1C(=O)NC1CCCC1)c1ccc(Br)s1 | -0.35 | -0.82
O=C(CSc1nnnn1C1CC1)N1c2ccccc2SCC1c1ccccc1 (centres undefined) | -0.6 | ·
CC1=CC(C)=NC2=C(c3ccccc3)S/C(=C3/C(=O)N(C)C(=S)N3C)N12 | 0.35 | ·
Cc1ccc(-c2nnc(SCC(=O)Nc3ccccc3)c3ccccc23)cc1S(=O)(=O)N1CCOCC1 | · | -0.62
CSc1nc(N(C)C)nc(N2CC(=O)N(CCNS(=O)(=O)c3ccc(C)cc3)C2=N)n1 | · | 0.65
N#Cc1ccsc1NC(=O)CSCC(=O)O | 0.1 | 0.83

The listing continues.
SMILES | AID504770 | Ba CapD inh
CC(C)(C)C(C)(C#N)Nc1ccc(Cl)cc1 (centres undefined) | 0.5 | -0.46
Cc1oc2cc(O)ccc2c(=O)c1Oc1ccc(-c2ccccc2)cc1 | 1.1 | 1.4
CCCOC(=O)CSc1nc(N)c(C#N)c(-c2ccc(C)cc2)c1C#N | 0.7 | -0.19
Cc1ccc(C)c(OCCSc2ncccn2)c1 | -0.2 | ·
CN1C(=O)/C(=C2\SC(=S)N(c3cccc(C(=O)O)c3)C2=O)c2ccccc21 | -0.4 | -0.23
CCn1cc(S(=O)(=O)CC(=O)Nc2ccc(C)cc2)c2ccccc21 | -0.15 | ·
O=C1NC2=C(C(=O)OC2)C(c2ccc(O)cc2)N1 (centres undefined) | -0.4 | ·
C=CC(=O)NC(C)(C)CCN1CCOCC1 | 1.1 | 0.7
O=C(Cn1cnc(S(=O)(=O)N2CCCCC2)c1)NCCc1ccccc1 | 0.45 | 0.32
O=C(Nc1ccc(Cl)cc1)c1ccc(-c2ccccc2F)cc1 | · | 0.73
CCC(C)(C)c1ccc(Oc2ccc(NC(=O)CSc3cccc[n+]3[O-])cc2)cc1 | -0.95 | -0.28
Cc1nc(-c2c(-c3ccccc3)noc2C)cs1 | -0.5 | 0.24
CC(C)(C)c1cn2c3ccccc3nc2n1CCN1CCCC1 | 1.2 | 0.23
COc1ccccc1NC(=O)N(c1ccc2c(c1)CCN2C(C)=O)C1CCN(CCc2ccccc2)CC1 | · | -0.58
C=C(C)C1CNC(C(=O)O)C1CC(=O)O (centres undefined) | -1.2 | ·
COc1cc(C2C(C(=O)OCC3CCCO3)=C(C)NC3=C2C(=O)CCC3)cc(Br)c1O (centres undefined) | · | 9
COc1cc(C2CC(=O)Nc3c2cc(Br)c2ccccc32)cc(OC)c1OC (centres undefined) | · | 0.2
CCOC(=O)c1c(NC(=O)CSc2nncs2)sc2c1CCC2 | 0.25 | ·
Cc1ccc(NS(=O)(=O)c2c(C)ccc3nsnc23)cc1 | -0.5 | 0.025
O=C(Sc1c(Cl)cccc1Cl)N1CCOCC1 | 0.25 | -0.21
O=c1c2cc(-c3ccccc3)sc2ncn1Cc1ccccc1Cl | 0.25 | 3.9
O=C(NC1CCN(Cc2ccccc2)CC1)C1CCN(c2nccc(C(F)(F)F)n2)CC1 | -0.25 | -0.1
Cc1ccc(N(C)C(=O)[C@H]2[C@@H]3C[C@@H]4[C@H]2C(=O)O[C@@H]4C3)cc1 | -0.6 | -0.15
O=S(=O)(c1ccc(Br)cc1)N1CCCC(C(F)(F)F)C1 (centres undefined) | -0.85 | 0.94
Cc1cccc(-n2c(=S)[nH]c3c(c2=O)C2(CCCCC2)Cc2ccccc2-3)c1 | · | -0.51
Next records:
SMILES | AID504770 | Ba CapD inh
CCOC(=O)c1sc(N(Cc2ccccc2)C(=O)CSc2n[nH]c(N)n2)nc1C | 2 | ·
COc1ccc(OC)c(CNc2nc3ccccc3c3nnc(C)n23)c1 | -0.7 | 0.86
CCSc1nc2c(c(=O)n1C1CCCC1)C1(CCCC1)Cc1ccccc1-2 | · | -0.48
COc1ccc(OC)c(CCNC(=O)NCc2noc3ccc(C)cc23)c1 | -0.5 | -0.22
Cc1ccccc1OCC(O)CN(Cc1ccccc1O)C1CCCCC1 (centres undefined) | -0.3 | ·
Cc1ccccc1OCc1nc2ccccc2[nH]1 | -1.4 | 0.71
COc1ccc(CNC(=O)c2oc3ccc(S(=O)(=O)N4CCOCC4)cc3c2C)cc1 | -0.15 | -0.25
Cc1cc(C)c2c(n1)nn1c(C)c(CCC(=O)O)c(C)nc21 | 1.6 | 0.3
CC(C)(Oc1ccc(C#N)cc1)C(=O)Nc1ccccc1 | 1.6 | -0.095
O=C(O)c1ccc2c(=O)n3c4ccccc4nc3c3ccc(C(=O)O)c1c23 | · | -0.49
CCCN1C(=O)SC(CC(=O)Nc2ccccc2)C1=O (centres undefined) | -0.6 | -0.1
O=C(NCc1ccccn1)C1C2C=CC(C2)C1C(=O)Nc1ccc(F)cc1 (centres undefined) | 1.9 | ·
CCN(CC)c1nccs1 | -0.6 | ·
CCOC(=O)N(C)CCc1cc2c(cc1C)OCO2 | 0.25 | 0.34
CCCCN=C1SCC(c2cc3ccccc3o2)=NN1C | -1.2 | ·
Cc1nc(CS(=O)(=O)c2ccccc2)cc(Sc2ccc(Cl)cc2)n1 | · | -0.1
Cc1noc(C(=O)N2CCCc3ccccc32)c1Cl | -1.4 | -0.45
